Mtb growth = Mycobacterium tuberculosis H37Rv growth inhibition, cell based, confirmatory dose response (AID 1949); most inactive calls were filed without a number and no value below 0 was filed; inhibition, % at 10 µg/mL, or IC50 in µg/mL where a hit was titrated; actives 1.6% (n = 100,000);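 active = confirmed in a dose series; inconclusive = about 50% or more but not retested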;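 note: bacteria grown 7 days with compound before Alamar blue readout; 0% = untreated bacteria and 100% = reference antibiotic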
* marks the source's active call; other numbers are inactive results; i = inactive; ? = inconclusive. Some of the compounds tested, so the mix of outcomes need not match the whole.

Start of the data: the first 19 compounds, to show the layout:
SMILES	Mtb growth
O=C(CSc1nnnn1-c1ccccc1F)Nc1ccc(Br)cc1	i
O=C(Cc1cccs1)NC12CC3CC(CC(C3)C1)C2	i
O=c1oc2cc(OCc3cccc(C(F)(F)F)c3)ccc2c2c1CCC2	i
O=C(NC1CC1)c1cc(-c2ccccc2)nc2ccccc12	i
Cc1cc(Cl)ccc1NS(=O)(=O)c1cc(Cl)ccc1Cl	1%
O=S(=O)(NCc1ccco1)c1cccc(C(F)(F)F)c1	i
CCc1ccccc1-n1c(-c2ccccc2F)n[nH]c1=S	i
CC(Sc1nc(-c2ccccc2)cc(=O)[nH]1)C(=O)O (stereo not given)	i
COC(=O)c1ccc(NC(=O)Nc2ccc3c(c2)nc(C)n3C)cc1	8%
COc1ccc(N2C(=O)NC(=O)/C(=C\c3cc(OC)c(O)c(OC)c3)C2=O)cc1	i
Cc1c(C(=O)O)oc2c1C(=O)CC(C)(C)C2	i
Cc1cc(OCCOCCNC(C)C)ccc1C(C)C	i
CCC(CC)C(=O)Nc1cccc(C(=O)N2CCCC2)c1	i
COc1cc(S(=O)(=O)n2cnc3ccccc32)ccc1Br	1%
CC1(C)CNC(=O)c2sc(NC(=O)c3ccccc3)nc2C1	i
O=C(CSc1ccccc1C(=O)O)Nc1ccnc2ccccc12	0%
COc1cc([N+](=O)[O-])ccc1NC(=S)NCCCN1CCCC1=O	3%
Cn1c(-c2cc(Br)ccc2O)n[nH]c1=S	9%
CCOc1cc(CN2CCN(Cc3cc(OC)ccc3OC)CC2)ccc1OC	i

All compounds of this part, previewed entries included:
SMILES	Mtb growth
O=C(CSc1nnnn1-c1ccccc1F)Nc1ccc(Br)cc1	i
O=C(Cc1cccs1)NC12CC3CC(CC(C3)C1)C2	i
O=c1oc2cc(OCc3cccc(C(F)(F)F)c3)ccc2c2c1CCC2	i
O=C(NC1CC1)c1cc(-c2ccccc2)nc2ccccc12	i
Cc1cc(Cl)ccc1NS(=O)(=O)c1cc(Cl)ccc1Cl	1%
O=S(=O)(NCc1ccco1)c1cccc(C(F)(F)F)c1	i
CCc1ccccc1-n1c(-c2ccccc2F)n[nH]c1=S	i
CC(Sc1nc(-c2ccccc2)cc(=O)[nH]1)C(=O)O (stereo not given)	i
COC(=O)c1ccc(NC(=O)Nc2ccc3c(c2)nc(C)n3C)cc1	8%
COc1ccc(N2C(=O)NC(=O)/C(=C\c3cc(OC)c(O)c(OC)c3)C2=O)cc1	i
Cc1c(C(=O)O)oc2c1C(=O)CC(C)(C)C2	i
Cc1cc(OCCOCCNC(C)C)ccc1C(C)C	i
CCC(CC)C(=O)Nc1cccc(C(=O)N2CCCC2)c1	i
COc1cc(S(=O)(=O)n2cnc3ccccc32)ccc1Br	1%
CC1(C)CNC(=O)c2sc(NC(=O)c3ccccc3)nc2C1	i
O=C(CSc1ccccc1C(=O)O)Nc1ccnc2ccccc12	0%
COc1cc([N+](=O)[O-])ccc1NC(=S)NCCCN1CCCC1=O	3%
Cn1c(-c2cc(Br)ccc2O)n[nH]c1=S	9%
CCOc1cc(CN2CCN(Cc3cc(OC)ccc3OC)CC2)ccc1OC	i
Cc1occc1C(=O)Nc1ccc(Br)cc1F	0%
O=C(c1ccccc1Oc1ccccc1)N1CCN(c2ccccc2F)CC1	i
COC(=O)c1c(-c2ccccc2)csc1NC(=O)c1cc2cccc(OC)c2oc1=O	?
COC(=O)COc1ccc(NC(=O)c2ccccc2Cl)cc1	i
CS(=O)(=O)c1ccc2nc(NC(=O)C3CCCCC3C(=O)O)sc2c1 (stereo not given)	i
Cc1c(C(=O)OCC2CCCO2)[nH]c2c1C(=O)CC(c1ccccc1Cl)C2 (stereo not given)	?
CC(=O)n1c(SCc2ccc(F)cc2)nc2ccccc21	5%
COc1ccc(NC(=O)CSc2nnc(N)s2)c(OC)c1	i
CC1CCN(C(=O)c2nn(C)c(=O)c3ccccc23)CC1	i
COc1cccc(C(=O)N2CCN(S(=O)(=O)c3ccc(Cl)cc3)CC2)c1OC	2%
O=S(=O)(Nc1ccccc1F)c1ccc2nsnc2c1	i
CCOc1ccc(N(CC(=O)Nc2ccccc2C(=O)NCc2ccco2)S(C)(=O)=O)cc1	i
COc1ccc(NS(=O)(=O)c2ccc(NC(=O)c3cc(OC)c(OC)c(OC)c3)cc2)cc1	i
NC(=O)C(Cc1ccccc1)NC(=O)c1ccccc1SCc1ccc(F)cc1 (stereo not given)	i
Cc1ccc(-n2c(Cc3cccs3)nnc2SCC(N)=O)cc1	i
CCC(=O)Nc1cc(-c2nn(C)c(=O)c3ccccc23)ccc1N1CCOCC1	1%
CC1CCN(C(=O)CN(Cc2cccc(Cl)c2)S(=O)(=O)c2ccc(Cl)cc2)CC1	11%
Cc1cnn(C(=S)NCc2ccc(Cl)cc2)c1	32%
Cc1ccoc1C(=O)N1CCN(C(=O)c2occc2C)CC1	i
CC1=C(C(=O)OCc2ccccc2)C(c2coc3ccc(Cl)cc3c2=O)C2=C(CCCC2=O)N1 (stereo not given)	9%
CC1(C)NC(=O)N(CCCCSc2ccc(Cl)cc2)C1=O	0%
CCOC(=O)c1cc(-c2nc(-c3ccccc3)cs2)c(SC)[nH]c1=O	47%
COc1ccc(NC2=NCC(C)S2)cc1 (stereo not given)	i
COc1cccc(C(=O)Nc2cccnc2)c1OC	i
O=C(Nc1ccccc1C(=O)Nc1ccccc1F)c1ccc(Cl)cc1Cl	18%
Cc1ccc(NC(=O)c2sc3cccc(Cl)c3c2Cl)c(C)c1	i
O=C(COc1ccc(Br)cc1)NC(=S)Nc1cccc2nsnc12	i
O=C(NCc1ccccn1)C1CC(c2cccc(Br)c2)=NO1 (stereo not given)	i
Cc1ccccc1C(=O)N1CCC(C(=O)Nc2ccc(Cl)cc2)CC1	i
CC(C)CNc1cc(N2CCNCC2)ccc1[N+](=O)[O-]	0%
CCCOc1ccc(C(=O)Nc2ccc(C)c(C)c2)cc1	8%

Following part.
SMILES	Mtb growth
O=C(Cc1coc2ccc3ccccc3c12)Nc1ccccc1F	i
CCCCn1c(-c2ccc(C(C)(C)C)cc2)n[nH]c1=S	1%
Cc1nc(SCC(=O)NC2CCCC2)[nH]c(=O)c1Cc1ccccc1	i
COc1ccc(CCNC(=O)CCCN2C(=O)c3ccccc3C2=O)cc1OC	i
O=C(CSc1ncn[nH]1)c1ccc2c(c1)OCO2	i
CCOC(=O)c1ccc(NCCC(=O)c2cccc([N+](=O)[O-])c2)cc1	4%
CCC(C)Oc1ccc(C(=O)NC(=S)Nc2cccc(NC(=O)c3ccccc3)c2)cc1 (stereo not given)	i
COc1ccc(OC)c(S(=O)(=O)NNC(=S)Nc2cccc(C(F)(F)F)c2)c1	i
CCC(=O)NC(/C(C#N)=C1\NC(C)(C)Cc2ccccc21)(C(F)(F)F)C(F)(F)F	i
CC(=O)Nc1ccc(C(=O)Nc2nnc(C)s2)cc1	i
Cc1cc(C)c(NS(=O)(=O)c2ccc(NC(=S)NC3CCCCC3)cc2)c(C)c1	i
COC(=O)c1ccc(Cl)c(NS(=O)(=O)c2ccc3c(c2)OCCO3)c1	i
COc1ccccc1NC(=O)C(=O)NCc1cccc(C)c1	i
c1ccc(SCCOCCn2cncn2)cc1	i
NS(=O)(=O)c1ccc(NC(=S)N2CCN(c3ccccc3Cl)CC2)cc1	i
N#CCCN(CCC#N)C(=O)c1ccccc1Oc1ccccc1	i
N=C=C1C(=S)NC2=C(C(=O)CCC2)C1Cc1ccccc1 (stereo not given)	3%
Cn1c(=O)c2c(nc(NCCCCO)n2Cc2ccccc2Cl)n(C)c1=O	i
COc1ccccc1C1=NN(C(=O)c2ccccc2)C(c2ccco2)C1 (stereo not given)	11%
CN(C)C(=O)c1ccc(NC(=O)c2ccc(Oc3ccc(C(F)(F)F)cc3[N+](=O)[O-])cc2)cc1	i
COc1ccc(OC)c(S(=O)(=O)N2CCN(c3cccc(Cl)c3C)CC2)c1	i
CN(C)S(=O)(=O)c1ccc(C(=O)Nc2ccc(CCC(=O)N3CCCC3)cc2)cc1	i
C=CCn1c(SCC(=O)c2ccc(OC)cc2)nnc1-c1ccc(Br)cc1	i
CC1CCc2c(sc3nc4c5ccccc5c(N5CCN(CCO)CC5)nn4c(=O)c23)C1 (stereo not given)	4.9µg/mL*
O=C(CCC1CCCCC1)Nc1cccc(F)c1	i
COc1ccc(CCNC(=S)Nc2ccc(N3CCOCC3)c3nonc23)cc1OC	i
CCOc1ccccc1NC(=O)c1cc(Cl)cc(Cl)c1NC(=O)c1ccc(OC)cc1	i
CC1=C(C(=O)OC(C)C)C(c2ccccc2[N+](=O)[O-])N2C(=O)CCSC2=N1 (stereo not given)	i
COc1ccc(C2NC(=O)NC(C)=C2C(=O)Nc2ccc(C)c(C)c2)c(OC)c1 (stereo not given)	1%
O=C(c1ccccc1)c1cc(Cl)ccc1NOC(=O)C(F)(F)F	1%
O=C(c1cccc(COc2cc(Cl)ccc2Cl)c1)N1CCCC1	i
CCNC(=O)c1c(NC(=O)c2ccccc2Cl)sc2c1CCCC2	1%
CCOc1cc(C)c(Cl)cc1S(=O)(=O)NCc1ccccc1	i
Cc1ccc(Cl)c(NC(=S)N(CCCN2CCOCC2)Cc2ccco2)c1	i
CCc1ccccc1N(CC(=O)Nc1ccccc1C(=O)NC(C)CC)S(=O)(=O)c1ccccc1 (stereo not given)	i
COc1ccccc1N1CCN(S(=O)(=O)c2c(C)ccc3nsnc23)CC1	2%
Cc1ccc(-c2nn(C)c(=O)c3ccccc23)cc1CNC(=O)CN1C(=O)c2ccccc2C1=O	i
COc1ccc(C(=O)NCc2ccco2)cc1Br	i
Nc1nc2n(n1)C(c1cccc(Br)c1)CC(c1ccccc1)N2 (stereo not given)	1%
COc1ccc(-c2nn(CCC#N)cc2C(=O)OCc2ccccc2)cc1	5%
Cc1cc(C(=O)O/N=C(\N)Cc2cccc3ccccc23)ccc1[N+](=O)[O-]	2%
COc1ccc(OC(C)C(=O)Nc2ccc(Nc3ccccc3)cc2)cc1 (stereo not given)	11%
COc1ccc(S(=O)(=O)N(C)CC(=O)NCC(C)C)cc1C	i
CCC(C)NCCOc1ccc(C)c(C)c1 (stereo not given)	i
Cc1cc(OCC(=O)Nc2c(C)cccc2C)c2c3c(c(=O)oc2c1)CCCC3	i
O=C(c1c(F)cccc1F)N1CCN(C(c2ccccc2)c2ccccc2)CC1	i
CC(C)Oc1ccc(C(CC(=O)N2CCCCC2)Cc2ccccc2)cc1 (stereo not given)	4%
CC(C)N(C(C)C)S(=O)(=O)c1ccc(NC2CCCCC2)nc1	i
Cc1cccc(-c2nc(-c3ccccc3)no2)c1	i
CC(C)NC(=O)C(=O)NCCN(C)C	i

(list continues)
SMILES	Mtb growth
CC(C)Oc1ccc(Oc2ccc(C(F)(F)F)cn2)cc1	i
CCOc1ccc(NC(=O)C2(c3ccc(OC)c(OC)c3)CCCC2)cc1	i
COc1ccc(-c2cc(=O)c3cc(OC(=O)c4cccs4)ccc3o2)cc1	i
CCOC(=O)C1CCCN(C(=O)Cc2ccc(OC)c(OC)c2)C1 (stereo not given)	1%
O=C(Nc1ncccn1)c1cccc(F)c1	i
Cc1ccc(S(=O)(=O)CCc2nnc(N)s2)cc1C	i
O=C(NCC1CCCO1)c1ccc(NC(=O)c2cccc(Br)c2)cc1 (stereo not given)	i
O=C(Nc1cccc(NC(=S)NC(=O)c2cccc3c(Cl)cccc23)c1)c1ccco1	11%
Cc1cc(NC(=O)c2cccc(C(=O)Nc3cc(C)on3)n2)no1	i
CCCCC(=O)NC(c1ccccc1)c1cc(Cl)c2cccnc2c1O (stereo not given)	i
Cc1cccc(-c2nc3ccccc3n2Cc2ccccc2)c1	11%
COc1ccc(C(=O)n2nc(-c3ccco3)nc2SC)cc1OC	i
CCOC(=O)c1c(NC(=O)c2ccco2)sc2c1CCC2	4%
CCC(C(=O)Nc1ccc(S(=O)(=O)N2CCN(C)CC2)cc1)c1ccccc1 (stereo not given)	i
COc1ccc(C(=O)NC(=S)NCc2ccccc2)cc1	i
COC(=O)c1ccccc1NC(=O)Cn1c([N+](=O)[O-])cnc1C	i
Cc1c(Cl)ccc(S(=O)(=O)NCCCN2CCOCC2)c1Cl	i
CC(Oc1ccc(C(C)(C)C)cc1)c1nc(-c2cccnc2)no1 (stereo not given)	?
CCCOc1ccc(C(=O)N2CCN(c3ccc(NC(=O)c4cccnc4)cc3Cl)CC2)cc1	9%
COc1ccccc1N1C(=O)NC(=O)/C(=C/c2ccoc2)C1=O	1%
CCN(CC)CCNc1c([N+](=O)[O-])c(=O)n(C)c2ccccc12	3%
Fc1ccc(OCCCN2CCCCCC2)cc1	i
CC(C)C(NC(=O)c1ccc(C(C)(C)C)cc1)C(=O)O (stereo not given)	i
Cc1nn(Cc2ccccc2)c(C)c1C(=O)NS(=O)(=O)c1ccccc1Cl	i
CC(C)CNS(=O)(=O)c1ccc(CCC(=O)N2CCN(c3ccccc3)CC2)cc1	i
CC(C)COc1ccc(C(=O)Nc2ccc3oc(-c4ccncc4)nc3c2)cc1	i
Cc1sc2ncnc(N3CCN(c4ccccc4)CC3)c2c1-c1ccc(F)cc1	i
COc1cccc(OC)c1C(=O)Nc1cccc(-c2nc3ccccc3[nH]2)c1	i
COc1ccc(C)cc1NC(=S)NNC(=O)c1ccc(OC2CCCC2)cc1	i
CC(NC(=O)c1ccccc1Cl)c1nnc(SCC(=O)Nc2ccc(I)cc2)n1C (stereo not given)	0%
COc1ccc(-c2nnc3c4ccccc4c(C)nn23)cc1S(=O)(=O)NCc1cccnc1	i
O=C(NC1CCCC1)c1ccc(CSc2ccc(Cl)cc2)cc1	i
COc1ccccc1NS(=O)(=O)c1ccc(NC(=O)Nc2cccc(C(C)=O)c2)cc1	i
CCC(C)NCCOc1ccc(C(C)C)c(C)c1 (stereo not given)	i
